Anaer choline gr: inhibitors of anaerobic choline-dependent gram-negative bacterial growth; calls only; Gram-negative bacterium anaerobic choline minimal medium, absorbance growth; hits give low values; many inactives read as strong as hits in the columns shown; hit rate 0.2% among 55,000;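 active = growth z-score on choline under -2 at 7 or 20 h with little or no fall on glycerol, limits in tiers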;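 also: stock transfer was 300 nL into about 50 µL; the organism is E. coli; final concentration not given here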
Anaer choline gr early: second read-out of Anaer choline gr, no call of its own (marks repeat the call); z-score; measured here: choline growth z-score, timepoint 1;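 score of optical density at 7 h as mean of two plates; lower means less growth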
* hit, by the source's call; i = inactive; + = active, no number; & = joins results of further samples; ! = not active in a repeat.

SMILES	Anaer choline gr	Anaer choline gr early
Oc1ccc(Cl)cc1C1CC(c2ccccc2)=NC2(CCNCC2)N1 (stereo unspecified)	i	0.36
CC(C)CCNC(=O)C1CCCN1c1nnc(N2CCCCC2=O)s1 (stereo unspecified)	i	0.6
O=c1ccn(-c2cccc(F)c2)nc1-c1nc(-c2ccc3c(c2)OCO3)no1	i	-0.3
Cc1ccnc(N2CCC(C(=O)NCCc3ccc(S(N)(=O)=O)cc3)CC2)n1	i	0.32
O=C(CSc1nc(-c2ccccc2)no1)Nc1ccccc1Cl	i	1.39
O=C(Cc1c[nH]c2ccccc12)NCCn1c(CCc2ccccc2)nc2cccnc21	i	0.2
CC(C)Oc1ccc(CNS(=O)(=O)c2cc3c4c(c2)CCN4C(=O)CC3)cc1	i	-1.7
O=C(CCCc1nc(-c2ccccc2)no1)Nc1ccc(N2CCOCC2)cc1	i	-0.76
Cc1cc(C)c2c(n1)SCCN2C(=O)Nc1ccc(F)c(Cl)c1	i	-0.52
Cc1ccc(S(=O)(=O)c2c(C(=O)N3CCCCC3)cnc3ccccc23)c(C)c1	i	-0.18
Cc1cc(Nc2ccc(NS(=O)(=O)c3c(C)noc3C)cc2)nc(N2CCCC2)n1	i	-0.93
O=C(c1ccc(N2CCNCC2)c(NS(=O)(=O)c2ccc(Cl)cc2)c1)N1CCOCC1	i	0.18
COC(=O)c1cc(S(=O)(=O)N2CCCC(CN3CCc4ccccc4C3)C2)c[nH]1 (stereo unspecified)	i	-1.29
Cc1nc(-c2ccc(Cl)c(S(=O)(=O)N3CCCC(C(=O)NCc4ccc(Cl)cc4)C3)c2)no1 (stereo unspecified)	i	0.21
COc1ccccc1CNC(=O)C1(C)Cn2c(cc3ccsc32)C(=O)N1c1cccc(Cl)c1 (stereo unspecified)	i	0.2
CCN1C(=O)c2ccccc2Sc2cc(-c3noc(CCc4c[nH]c5ccccc45)n3)ccc21	i	2.78
COC(=O)Cn1cc(CN2CCCC2c2cc(C(C)C)on2)c2cc(OC)ccc21 (stereo unspecified)	i	0.25
O=c1c(S(=O)(=O)c2ccc(F)c(F)c2)c[nH]c2cc(F)ccc12	i	-0.13
Cc1nn(-c2cc(N3CCCC3)ncn2)c(C)c1CCC(=O)NCCC1=CCCCC1	i	0.19
CCC1=NS(=O)(=O)c2cccnc2N1c1ccc(C(C)C)cc1	i	-0.25
O=C(c1cnc(N2CCCCC2)c2ccccc12)N1CCC(c2ccccc2)C1 (stereo unspecified)	i	-0.41
Cc1nc(-c2cccc(F)c2)sc1CCNC(=O)C1CCCCC1	i	-0.83
Cc1csc(-c2cc(S(=O)(=O)NCc3ccco3)c(C)n2C)n1	i	-0.36
Cc1ccc2c(c1)cc(C(=O)Nc1cccnc1)n2C	i	-0.6
CC(C)C(=O)NC(c1ccc(N(C)C)cc1)c1ccc2cccnc2c1O (stereo unspecified)	i	-0.34

Shown with two lines to a compound: 3 of the compounds above
The line under a structure holds: Anaer choline gr | Anaer choline gr early
- Oc1ccc(Cl)cc1C1CC(c2ccccc2)=NC2(CCNCC2)N1 (stereo unspecified)
→ i | 0.36
- CC(C)CCNC(=O)C1CCCN1c1nnc(N2CCCCC2=O)s1 (stereo unspecified)
→ i | 0.6
- O=c1ccn(-c2cccc(F)c2)nc1-c1nc(-c2ccc3c(c2)OCO3)no1
→ i | -0.3

(more compounds)
SMILES	Anaer choline gr	Anaer choline gr early
O=C(Nc1cccc(F)c1)C1=NS(=O)(=O)c2ccccc2N1	i	0.64
COc1ccc(N2C(=O)C3N=NN(c4ccc(F)c(Cl)c4)C3C2=O)cc1 (stereo unspecified)	i	0.3
O=C(Nc1cnn(-c2ncc(N3CCCC3)cn2)c1)C1CCC1	+	-3*
CCC(=O)N1N=C(c2c(O)n(C)c(=S)n(C)c2=O)CC1c1cc(OC)ccc1OC (stereo unspecified)	i	0.08
COc1ccc(OC)c(NC(=O)COc2ccc(-c3noc(-c4ccccc4)n3)cc2OC)c1	i	-0.1
Cc1ccc(N2CC(C(=O)NCc3nnnn3-c3ccc(F)c(F)c3)CC2=O)cc1C (stereo unspecified)	i	-1.44
O=C(NCCN1CCOCC1)c1ccccc1CN1C(=O)C2CCCN2C(=O)c2ccccc21 (stereo unspecified)	i	1.14
CCCc1cc(C2CCCN2Cc2cn[nH]c2-c2ccc(C)cc2)no1 (stereo unspecified)	i	0.43
O=C(CSc1nc2ccsc2c(=O)n1-c1ccc(F)cc1)Nc1ncn[nH]1	i	1.02
CCc1ccccc1NC(=O)Cc1csc(C)n1	i	0.1
CC(=O)Nc1ccc(-c2cc(C(=O)NC3CC3)c3cc(C)ccc3n2)cc1	i	-0.74
CCOc1ccccc1C(=O)Oc1cccc(-n2cnnn2)c1	i	0.62
O=S1(=O)c2ccccc2NC(c2ccc(F)c(F)c2)N1Cc1ccc(F)cc1 (stereo unspecified)	i	-2.19
Cc1ccc(CNS(=O)(=O)c2cc(-c3ccc(=O)[nH]n3)ccc2Cl)cc1	i	1.83
Cc1cc(OCc2nc(C)c(C(=O)NCc3ccc4c(c3)OCO4)s2)ccc1Cl	i	-0.29
O=S(=O)(c1cc(-c2noc(C3CCCC3)n2)cs1)N1CCCCCC1	i	1.45
COc1ccc(CCN2C(=O)c3ccccc3CC2(C)C(=O)NC2CCC(C)CC2)cc1OC (stereo unspecified)	i	-0.88
Cc1ccc(C)c(N2CCN(C(=O)C3CCN(S(=O)(=O)c4cccc5cccnc45)CC3)CC2)c1	i	0.53
CCCCCC(=O)N1c2ccccc2NC2=C(C(=O)CC(C)(C)C2)C1c1cccc(OC)c1 (stereo unspecified)	i	-0.38
Cn1c(=O)c(=O)n(C)c2cc(S(=O)(=O)C3CCCCC3)c(NC(=O)c3cccc(F)c3)cc21	i	-1.42
CCN1c2cc(C)ccc2-n2cccc2C12CCN(S(=O)(=O)c1ccc3c(c1)CCCC3)CC2	i	-0.58
Cc1ccsc1CCNS(=O)(=O)c1cc(-c2ccno2)sc1C	i	-0.79
CCCn1c(CCc2ccc(NS(=O)(=O)c3ccccc3)cc2)nc2ccccc21	i	0.19
CCCCc1c(C)[nH]n(-c2nc(C)c(C(=O)NCCC)s2)c1=O	i	0.64
NC(=O)C1CCN(S(=O)(=O)Cc2c(F)cccc2Cl)CC1	i	-0.32

Later entries
SMILES	Anaer choline gr	Anaer choline gr early
COc1ccccc1Oc1cc(-c2cccc(C(=O)NCc3ccc(Cl)cc3)c2)ncn1	i	1.11
CCOc1ccc(N2C(=O)c3cc4ccsc4n3CC2(C)C(=O)NC2CCCC2)cc1 (stereo unspecified)	i	-0.22
Cc1cc2c(cc1C)N(CC(=O)NC1CCCCC1)C(=O)C1CCCC1=N2 (stereo unspecified)	i	-0.09
COCCNC(=O)c1ccc2nc(-c3cccc(C)c3)c(-c3cccc(C)c3)nc2c1	i	1.07
Cc1cc(N2CCCC2)n2nc(-c3ccccc3)c(C)c2n1	i	1.03
COc1cc(Nc2nc(C)cc(=O)[nH]2)c(OC)cc1Cl	i	-0.49
COc1ccc(NC(=O)c2ccccc2-c2nc(-c3ccccc3)no2)cc1	i	-0.02
O=C(Nc1ccc(Br)cc1)c1ccc(Nc2ccnc(-c3cccc(F)c3)n2)cc1	i	-0.49
Cc1ccc(-c2cc3c(N4CCC(C(=O)NC5CCCC5)CC4)nccn3n2)cc1C	i	0.42
COCCNC(=O)c1cnc(N(C)C)nc1C	i	-0.42
O=C(c1cnc2ccc(F)cc2c1Nc1ccc(Br)cc1F)N1CCCCC1	i	1.19
CCCNc1ncnc2c1cnn2C	i	0.17
Cc1nc(-c2ccc3c(c2)n(CC(=O)N2CCc4ccccc42)c(=O)n3C(C)C)no1	i	-0.26
Cc1ccc(-c2noc(-c3ccccc3S(=O)(=O)N3CCCCC3C)n2)cc1 (stereo unspecified)	i	0.2
C[C@@H](O)CCC[C@H](O)/C=C/C1=C(C/C=C\CCCC(=O)O)C(=O)CC1	i	-0.37
Cc1cc(CNC(=O)NCC2CCCO2)c(C)n1-c1ccc(F)cc1 (stereo unspecified)	i	-1.74
CCC(C(=O)NCCCN1CCCC1)N1CCN(Cc2ccc(F)cc2)C(=O)C1=O (stereo unspecified)	i	0.27
Cc1sc(-c2noc(C(=O)N3CCCC3)n2)cc1S(=O)(=O)NCCC1=CCCCC1	i	1.74
COc1ccc(-c2cc(C(=O)Nc3ccc4c(c3)C(=O)N(C)C3=NCCN34)c3ccccc3n2)cc1	i	0.43
O=C(Cn1c(=O)n(C2CC2)c(=O)c2nscc21)NCc1ccco1	i	0.8
Cc1nc2c(c(NCC(C)C)n1)CCC2	i	-0.04
COc1cc(OC)c(NC(=O)Nc2nnc(CC(=O)N3CCOCC3)s2)cc1Cl	i	-0.07
Cc1ccc(N(Cc2nc3nc(C)cc(=O)n3[nH]2)C(=O)c2ccccc2)cc1	i	0.24
CNC(=O)C1CCC(Cn2c(=O)c3sccc3n(CC(N)=O)c2=O)CC1 (stereo unspecified)	i	-1.05
Cc1noc2c1C(c1cccc(Cl)c1)C1=C(CC(c3ccc(O)cc3)CC1=O)N2 (stereo unspecified)	i	-0.39

Some of these compounds in order of their number in Anaer choline gr early, smallest number first:
| smiles | Anaer choline gr | Anaer choline gr early |
| --- | --- | --- |
| CNC(=O)C1CCC(Cn2c(=O)c3sccc3n(CC(N)=O)c2=O)CC1 (stereo unspecified) | i | -1.05 |
| COCCNC(=O)c1cnc(N(C)C)nc1C | i | -0.42 |
| Cc1noc2c1C(c1cccc(Cl)c1)C1=C(CC(c3ccc(O)cc3)CC1=O)N2 (stereo unspecified) | i | -0.39 |
| CCOc1ccc(N2C(=O)c3cc4ccsc4n3CC2(C)C(=O)NC2CCCC2)cc1 (stereo unspecified) | i | -0.22 |
| Cc1cc2c(cc1C)N(CC(=O)NC1CCCCC1)C(=O)C1CCCC1=N2 (stereo unspecified) | i | -0.09 |
| COc1ccc(NC(=O)c2ccccc2-c2nc(-c3ccccc3)no2)cc1 | i | -0.02 |
| CCC(C(=O)NCCCN1CCCC1)N1CCN(Cc2ccc(F)cc2)C(=O)C1=O (stereo unspecified) | i | 0.27 |

Next section.
SMILES	Anaer choline gr	Anaer choline gr early
O=C1Cc2cc(CCN3CCN(c4nsc5ccccc45)CC3)c(Cl)cc2N1	i	0.21&0.68&0.89
CC(=O)N1CCC(C(=O)NCc2ccccc2)(N(Cc2cccc(Cl)c2)C(=O)c2ccc(C)cc2)CC1	i	1.07
N=C1C(c2nc3ccccc3s2)=C(O)CN1c1ccc(S(N)(=O)=O)cc1	i	2.16
Cc1ccc2c(c1)c(-n1cccc1)c1n2CC(C)(C(=O)NC2CCCC2)N(Cc2cccnc2)C1=O (stereo unspecified)	i	-0.5
CN1C(C(=O)Nc2ccccn2)=C(O)c2ccccc2S1(=O)=O	i	-0.49&-0.7&-0.59&0.28&-0.55&0.94
COc1cc(OC)c(NC(=O)CN2CCCN(Cc3ccccc3)S2(=O)=O)cc1Cl	i	0.15
Cc1c(Cl)cccc1NC(=O)CN1C(=O)C(C)CSc2ccc(S(=O)(=O)N3CCCC3)cc21 (stereo unspecified)	i	0.05
CCCCCCCCCCCCCCCCOCC(COP(=O)([O-])OCC[N+](C)(C)C)OC (stereo unspecified)	i	0.63
Cc1nn(-c2ccc(-c3ccccc3)nn2)c(C)c1S(=O)(=O)NCc1ccc(F)cc1	i	-0.1
CCOc1ccc(C2=NCCNC3=C2C(c2ccccc2)N(c2ccccc2)C3=O)cc1 (stereo unspecified)	i	0.25
CCc1nnc(NC(=O)CSc2ccc3nnc(-c4ccc(F)cc4)n3n2)s1	i	1.34
Fc1ccc(-c2cc3ncc4c(n3n2)-c2cc(Cl)ccc2OC4)cc1	i	0.23
COc1ccc(OC)c(CN2CCCC2c2cc(C(C)C)on2)c1 (stereo unspecified)	i	0.6
CN1CCN(C(=O)c2n[nH]c3c2CCCC3)CC1	i	0.22
Cc1nc(-c2cc(S(=O)(=O)NCC(=O)NCc3ccccc3Cl)c(C)s2)no1	i	-0.18
Cn1c(=O)n(C)c2cc(NC3=C(C(=O)N4CCOCC4)S(=O)(=O)c4ccccc43)ccc21	i	0.43
CCOCCCNC(=O)C1c2c(n(C)c3ccccc23)SCC(=O)N1c1cc(OC)ccc1OC (stereo unspecified)	i	0.21
Cc1cc(C(=O)NCCN(C)Cc2ccccc2)c2cccc(-c3ccc(F)cc3)c2n1	i	0.34
CCc1cc(Cl)c(OC)c(C(=O)NC[C@@H]2CCCN2CC)c1O	+!	-2.08*!
O=C1CC(c2cccc(Br)c2)c2cnn(-c3ccc(F)cc3)c2N1 (stereo unspecified)	i	-0.13
COc1cc(OC)c(NC(=O)Nc2c(C)nc3nc[nH]n3c2=O)cc1Cl	i	0.82
O=C(Nc1ccccc1)N1CCN(c2nc3cccnc3s2)CC1	i	-0.63
O=C(CCn1ccc2cc(S(=O)(=O)N3CCCCC3)ccc21)NCc1ccccn1	i	0.57
COc1ccc(CN2CCCC2c2cc(C)on2)cc1CN1CCOCC1 (stereo unspecified)	i	-0.66
CC(=O)Nc1ccc(S(=O)(=O)N2CCN(c3ncnc4c3nnn4-c3ccccc3)CC2)cc1	i	-0.22

Single records, as listed above. Order of screens: Anaer choline gr	Anaer choline gr early
COc1cc(OC)c(NC(=O)CN2CCCN(Cc3ccccc3)S2(=O)=O)cc1Cl in the list: i	0.15
O=C1CC(c2cccc(Br)c2)c2cnn(-c3ccc(F)cc3)c2N1 (stereo unspecified) in the list: i	-0.13
O=C1Cc2cc(CCN3CCN(c4nsc5ccccc45)CC3)c(Cl)cc2N1 in the list: i	0.21&0.68&0.89
O=C(Nc1ccccc1)N1CCN(c2nc3cccnc3s2)CC1 in the list: i	-0.63

(further entries)
SMILES	Anaer choline gr	Anaer choline gr early
Cc1noc(-c2c(C)sc(C)c2S(=O)(=O)N2CC=C(c3ccccc3)CC2)c1C	i	0.81
Cc1ccc2c(c1)N(C(=O)CSC1=NS(=O)(=O)c3ccccc3N1)CCO2	i	-0.2
Cc1c(N2CCN(C(=O)CC3CCCC3)CC2)c(=O)n(C)c(=O)n1C	i	1.23
CCc1c(C)nc2nc(NCc3ccc(C)cc3)[nH]n2c1=O	i	0.3
COc1ccc(Sc2cc3c(cc2NS(=O)(=O)c2ccc(OC)cc2)n(C)c(=O)n3C)cc1	i	1.1
FC(F)(F)c1cccc(-c2ccc(CNCC3CCCO3)o2)c1 (stereo unspecified)	i	-0.49

Screens as filed in PubChem BioAssay.

Some of the compounds tested, so the mix of outcomes need not match the whole.
